Screens: PubChem BioAssay, several laboratories
CSC inhib = cancer stem cell viability inhibitors, primary screen, luminescence. cancer stem cell-like cells viability. inhibition, % at 7.5 µM. 1.1% of 300,000 active;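 active means mean at 75% or more and at least half the replicates too; inconclusive means mean and replicates disagree; tested in HMLE shEcad cells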;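 further: 0% = median of negative and 100% = median of positive control wells; the first replicate is given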
MT1-MMP act inh = blockers of MT1-MMP proenzyme processing, primary screen, HT1080 RFP-PRO-GFP cells, GFP/RFP fluorescence | Matrix metalloproteinase-14 (Homo sapiens), P50281 | 0.061% of 360,000 active | GFP/RFP ratio fluorescence, overnight; percent of plate control window, DMSO zero | GFP/RFP ratio change, % at 20 µM;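 active means GFP/RFP ratio change of at least 30% with cell ATP level not reduced by more than half and red fluorescence within 50% of control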; further: strong numbers were not always called active
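system = RFP-PRO-GFP reporter HT1080 cells | dosing = 20 µM single dose, 1% DMSO | timing = overnight cell settling, then overnight compound exposure, 37 °C, 5% CO2 | read-out basis = GFP/RFP fluorescence ratio | controls = DMSO and RFP-L50D-GFP cell wells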
eIF4H FP inh = human eIF4H binding inhibitors, primary screen, translation initiation inhibitor project, biochemical, uHTS, fluorescence polarization; eIF4H fluorescence polarization binding assay; inhibition, % at 35 µM; 0.94% of 290,000 active;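 active means 50% or more with normal probe brightness, or confirmed in later tests; inconclusive means above 50% with abnormal brightness, or retests that disagree; inactive means below 50% or failed in later tests; about a fifth of its hits are not listed in these tables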;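 further: calls also rest on retests at 20 µM and on dose response follow-up; 0% = protein and probe with vehicle and 100% = probe without protein; strong numbers were not always called active; many hits fall short of the cut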
PABP polyA inh = PABP poly(A) RNA binding inhibitors, primary screen, biochemical, fluorescence polarization, uHTS. Polyadenylate-binding protein 1 (Homo sapiens), P11940. inhibition, % at 35 µM. 1% of 290,000 active. AID 2014, 2009;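 active means 50% or more with normal probe brightness, or confirmed in later tests; inconclusive means above 50% with abnormal brightness, or retests that disagree; inactive means below 50% or failed in later tests; about a fifth of its hits are not listed in these tables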;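 further: calls also rest on retests at 20 µM and on dose response follow-up; controls were probe without protein and protein plus probe with vehicle; some compounds called inactive have numbers as strong as hits; many hits fall short of the cut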
Target sequence (P11940 whole entry, looked up): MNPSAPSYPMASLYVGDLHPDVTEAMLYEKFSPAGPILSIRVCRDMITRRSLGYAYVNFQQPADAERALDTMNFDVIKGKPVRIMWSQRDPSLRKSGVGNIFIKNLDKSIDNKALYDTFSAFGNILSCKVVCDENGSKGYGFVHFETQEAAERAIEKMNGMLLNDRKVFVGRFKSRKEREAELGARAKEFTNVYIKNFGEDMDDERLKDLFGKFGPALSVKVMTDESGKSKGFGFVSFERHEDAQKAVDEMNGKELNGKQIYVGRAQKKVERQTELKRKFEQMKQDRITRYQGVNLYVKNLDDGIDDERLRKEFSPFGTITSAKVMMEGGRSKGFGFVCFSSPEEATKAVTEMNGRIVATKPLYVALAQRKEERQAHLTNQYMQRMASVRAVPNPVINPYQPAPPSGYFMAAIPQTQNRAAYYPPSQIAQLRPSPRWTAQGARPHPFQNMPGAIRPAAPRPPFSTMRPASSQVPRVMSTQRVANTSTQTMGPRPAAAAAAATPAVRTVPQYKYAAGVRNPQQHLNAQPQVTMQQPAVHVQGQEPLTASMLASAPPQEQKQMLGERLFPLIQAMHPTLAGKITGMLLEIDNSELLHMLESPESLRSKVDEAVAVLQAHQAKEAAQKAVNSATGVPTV
Env fusion inh = inhibitors of HIV-1 Env-driven cell-cell fusion, primary screen, HeLa-JRFL effector, CEM21 target cells, luciferase; 1.1% of 360,000 active; AID 651610, 2012; inhibition, % at 12.3 µM;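 active means mean replicate inhibition score of at least 50 and every replicate individually at or above 50; inconclusive means only one of the two criteria met; inactive means mean below 50 and not all replicates reaching 50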;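 further: 0% = plate neutral controls and 100% = maraviroc near 300 nM; one replicate is shown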
Rce1 inhib = yeast Rce1p protease inhibitors, primary screen, biochemical, fluorescence, cell-free homogeneous | yeast membranes, quenched prenylated peptide cleavage fluorescence | calls only | 0.27% of 290,000 active | AID 2563, 2010;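 active means fall in fluorescence gain of 50% or more versus controls, with final raw signal at or below 3038400; inconclusive means same 50% fall but final raw signal above 3038400; inactive means fall in fluorescence gain under 50%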;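 further: plate controls were neutral control wells for no effect and wells lacking membranes for full effect; tested at 10 µM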
Yeast UUG start = modulators of yeast start codon fidelity, primary screen, whole organism, S. cerevisiae, single point, plate reader. S. cerevisiae UUG-firefly luciferase reporter, luminescence/redox ratio. activity score, % at 18.7 µM. 0.13% of 350,000 active. AID 602363, 2012;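 active means replicate mean at a twofold rise or more, about +100% in these data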;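 further: firefly luciferase made from a UUG start codon reports start codon fidelity; reporter light over untreated wells divided by growth signal over untreated wells; some hits fall short of that in this replicate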
MT1-MMP act inh RFP = second read-out of MT1-MMP act inh, no call of its own (marks repeat the call); RFP signal change, %; measured here: RFP expression control read;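 0 = vehicle wells; hits needed this value within 50% of zero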
Starred values were filed as active, the others as inactive; i = inactive; ? = inconclusive; nt = no result given. These rows are one share of the data; the hit share may differ from the screen's.

SMILES | CSC inhib | MT1-MMP act inh | MT1-MMP act inh RFP | eIF4H FP inh | PABP polyA inh | Env fusion inh | Rce1 inhib | Yeast UUG start
CCN(CC)CCNC(=O)C1c2ccccc2C(=O)N(CCOC)C1c1ccc(F)cc1 (stereo not drawn) | -8 | -3 | 4 | -2 | -9 | -48 | i | -31
CC(=NC1CC1)C1=C(O)c2ccccc2C1=O | -23 | 2 | 2 | 21 | 9 | -46 | i | -16
CCCOc1ccc(-c2cn3ccccc3n2)cc1[N+](=O)[O-] | 14 | 5 | 0 | 0 | 4 | -253 | i | nt
Cc1ccc(Cl)cc1N1CCN(C(=O)c2ccc3c(c2)CCN3S(C)(=O)=O)CC1 | nt | 4 | -6 | -10 | 7 | 9 | i | -3
O=C(Nc1cc(-c2nc3ncccc3o2)ccc1Cl)c1ccco1 | -4 | -2 | -1 | 6 | 2 | -21 | i | -21
COc1ccccc1CCC(=O)Nc1ccc2c(c1)c(=O)n(C)n2-c1cccs1 | nt | 14 | -1 | nt | nt | -242 | nt | -40
COc1ccc(/C=N/NC(=O)c2nc(Cl)c(Cl)c(N)c2Cl)cc1COc1ccc(F)cc1F | 16 | -1 | -2 | 3 | -5 | nt | i | -5
CSc1ccc(/C=N/n2c(C)nnc2C)cc1 | 7 | 2 | 1 | -4 | 11 | 4 | i | -19
CCCc1nc(NC2CCCCC2)c(C#N)c2c1COC(C)(C)C2 | 106* | -7 | -11 | -2 | -3 | -20 | i | 2
COC(=O)c1cc(NS(=O)(=O)c2ccc(N3CCCCCC3)c([N+](=O)[O-])c2)cc(C(=O)OC)c1 | 1 | 1 | 5 | 6 | 3 | nt | i | -8
COc1cccc(S(=O)(=O)NC2CCN(C#N)C2)c1 (stereo not drawn) | -4 | 1 | 1 | nt | nt | -41 | nt | -16
Cc1ccccc1-c1nnn(CC(=O)N(C)CC(=O)Nc2ccccc2C(F)(F)F)n1 | -3 | 1 | -1 | nt | nt | -13 | i | 0
COc1cc(OC)cc(C(=O)Nc2ccccc2-c2nnn(CC(=O)Nc3cc(C)on3)n2)c1 | 6 | 4 | 0 | -7 | -2 | 17 | i | -4
COc1cc(OC)cc(C(=O)NCC(=O)NC(C)CCc2ccccc2)c1 (stereo not drawn) | -14 | -2 | -1 | 3 | -6 | 1 | i | -3
Fc1ccc(C(c2nnnn2C2CCCCC2)N2CCCC2)cc1 (stereo not drawn) | -4 | -3 | 1 | -10 | 1 | 18 | i | -17
CN(C)Cc1c(O)ccc2c(=O)c(-c3ccccc3Cl)c(C(F)(F)F)oc12 | 0 | 0 | -4 | 34 | -4 | 3 | nt | -5
CCOc1ccccc1NC(=S)N1CCN(c2cccc(C)c2C)CC1 | 24 | -6 | -8 | -1 | -10 | -4 | i | -20
COc1ccc(S(=O)(=O)NNC(=O)Cc2csc(C)n2)cc1[N+](=O)[O-] | 8 | -1 | 2 | nt | nt | 2 | i | -15
O=C(Nc1ccccc1N1CCCCC1)c1cccc(Cl)c1 | 10 | 0 | 0 | -4 | -6 | 12 | i | -20
COc1ccccc1NC(=O)CSc1nnc(-c2ccco2)o1 | -9 | 9 | 9 | -3 | -11 | nt | i | 7
O=C1NCCN1C(=O)N(c1ccccc1)c1ccccc1 | -4 | -2 | -2 | 1 | 0 | -53 | i | -8
Cn1c(=O)c2cc(S(=O)(=O)NC(C(=O)Nc3cccc(F)c3)c3ccccc3)ccc2n(C)c1=O (stereo not drawn) | -6 | -2 | 1 | -2 | -8 | -17 | i | 6
CNc1nc(SC)n(C)c(=O)c1N=O | -21 | nt | nt | -1 | -5 | nt | i | nt
CCn1c(SCc2ccccc2)nnc1C1CCCCC1 | 61 | -1 | 0 | -2 | 3 | nt | i | -10
Cc1cc2[nH]c(=O)c(=O)[nH]c2cc1S(=O)(=O)N(C)C1CCCCC1 | nt | 4 | 2 | -3 | 1 | 28 | i | -10

Some of the entries so far, with two lines to a compound.
Second line of a record – CSC inhib, MT1-MMP act inh, MT1-MMP act inh RFP, eIF4H FP inh, PABP polyA inh, Env fusion inh, Rce1 inhib, Yeast UUG start
> Cc1ccc(Cl)cc1N1CCN(C(=O)c2ccc3c(c2)CCN3S(C)(=O)=O)CC1
→ nt, 4, -6, -10, 7, 9, i, -3
> O=C(Nc1cc(-c2nc3ncccc3o2)ccc1Cl)c1ccco1
→ -4, -2, -1, 6, 2, -21, i, -21
> COc1ccccc1CCC(=O)Nc1ccc2c(c1)c(=O)n(C)n2-c1cccs1
→ nt, 14, -1, nt, nt, -242, nt, -40

Remaining list, next part:
SMILES | CSC inhib | MT1-MMP act inh | MT1-MMP act inh RFP | eIF4H FP inh | PABP polyA inh | Env fusion inh | Rce1 inhib | Yeast UUG start
CCOc1ccc(N(CC(=O)NCc2ccccc2)S(C)(=O)=O)cc1 | -12 | 3 | 7 | -14 | -3 | nt | i | -9
O=C(COC(=O)C1CCN(S(=O)(=O)c2ccc3c(c2)OCCO3)CC1)Nc1ccc(C(F)(F)F)cc1 | -4 | 4 | -1 | -8 | 6 | 9 | i | nt
O=C(CSc1nnc(-c2cccnc2)o1)Nc1ccccc1F | nt | -2 | -2 | nt | nt | -274 | i | -11
CCCOc1ccc(NC(=O)C2CC(=O)N(C(C)C)C2)cc1 (stereo not drawn) | -10 | -5 | 0 | 2 | -8 | 5 | i | -4
COc1cccc(-c2cccc(NC(=O)C3CCN(Cc4nccs4)CC3)c2)c1 | -6 | -3 | 1 | 9 | -5 | 10 | i | -7
O=C(O)C(Cc1cn[nH]n1)=NO | -5 | 0 | 0 | 12 | 5 | nt | i | -11
CC(=O)N1c2ccc(S(=O)(=O)NCCC(=O)N3CCCC(C)C3)cc2CC1C (stereo not drawn) | -12 | -8 | -2 | 13 | -1 | -8 | i | 3
COc1ccccc1NC(=O)COc1ccc(/C=N/n2cnnc2)cc1OC | 3 | 5 | 1 | 2 | 3 | -79 | i | -18
O=C(c1ccncc1)N1CCN(S(=O)(=O)c2cccc([N+](=O)[O-])c2)CC1 | -1 | -2 | 4 | nt | nt | -9 | i | nt
CCN(CC)C(=O)N(CC)Cc1ccccc1 | -11 | 1 | 1 | 3 | -4 | -6 | i | nt
O=C(CN1CCN(c2ccc([N+](=O)[O-])cc2)CC1)Nc1nccs1 | -7 | 1 | -6 | -17 | 19 | 51 | i | -6
CC(NC(=O)c1ccc(CS(C)(=O)=O)cc1)C1CC2CCC1C2 (stereo not drawn) | -10 | 0 | -1 | -4 | 2 | 13 | i | 8
CCC(CC)CC1CN2CCc3cc(OC)c(OC)cc3C2CC1(O)CC (stereo not drawn) | nt | -11 | -20 | nt | nt | 9 | nt | -4
COc1ccc(NC(=S)N/N=C/c2ccc(F)c(F)c2)cc1 | nt | 4 | 3 | 5 | 5 | -119 | i | nt
CN(C)CC1CCCCC1OC(=O)/C=C/c1ccccc1 (stereo not drawn) | -15 | 4 | 3 | -7 | -1 | 11 | i | nt
CCn1cc(C(=O)NCCc2ccccc2)c(=O)c2cc(F)c(N3CCN(C)CC3)cc21 | 20 | 4 | 1 | -7 | -5 | -39 | i | -16
Cc1ccc(NC(=O)C(C)OC(=O)c2n[nH]c3ccccc23)cc1 (stereo not drawn) | -9 | 2 | -3 | nt | nt | 2 | i | 5
Cc1ccc([N+](=O)[O-])cc1NC1CC(O)C(CO)O1 (stereo not drawn) | -5 | -2 | 2 | -3 | -4 | -104 | i | -20
O=C(Cn1cnc2c(nnn2Cc2ccccc2)c1=O)Nc1ccc2c(c1)OCCO2 | -32 | -2 | 0 | -5 | 12 | -59 | i | -10
CC(OC(=O)c1ccc(OCC2CCCO2)cc1)C(=O)N(C)Cc1ccccc1 (stereo not drawn) | -4 | -1 | -5 | nt | nt | 31 | i | -7
CCN(Cc1ccncc1)Cc1ccc(Br)cc1 | -14 | -2 | -2 | 14 | 11 | 9 | i | -15
CNCCCNC(=O)c1ccc(/C=N/O)nc1 | -10 | 2 | 5 | 2 | 11 | 13 | i | nt
COC(=O)Nc1nc2ccc(C(=O)c3cccs3)cc2[nH]1 | 55 | 16 | -3 | nt | nt | 0 | i | -5
CCOc1cc2nc3c4ccccc4n(C)c3nc2cc1OCC | -6 | -3 | -10 | 13 | -2 | 8 | i | nt
COC(c1ccccc1)c1nnc(CCC(=O)N(C)CCCC2CCCC2)o1 (stereo not drawn) | 5 | -2 | -2 | 0 | 39 | 0 | i | nt
New compounds follow
SMILES | CSC inhib | MT1-MMP act inh | MT1-MMP act inh RFP | eIF4H FP inh | PABP polyA inh | Env fusion inh | Rce1 inhib | Yeast UUG start
N=C(N)SCc1cn(-c2ccccc2)nc1-c1ccc(Br)cc1 | nt | -25 | -21 | -22 | -5 | ? | i | nt
Cc1ccc(NC(=O)CCNS(=O)(=O)c2ccc3c(c2)CCC(=O)N3)cc1 | -17 | 2 | 1 | 8 | 3 | -1 | i | -18
CC(C)CN1C(=O)NC2(CCCc3ccccc32)C1=O (stereo not drawn) | -15 | 3 | 6 | -6 | 0 | -12 | i | 2
CCOc1ccc(NC(=S)N2CCC(C(=O)c3ccc(F)cc3)CC2)cc1 | nt | 0 | -3 | nt | nt | 2 | nt | -41
CCN(CC)S(=O)(=O)c1cccc(C(=O)N/N=C/c2ccccn2)c1 | -16 | 2 | 3 | 22 | -2 | -7 | i | nt
CCN1CCN(CCNC(=O)c2cn(Cc3ccccc3F)nn2)CC1 | 12 | -7 | 6 | 2 | -5 | -40 | nt | -4
CCN1C(=O)[C@H]2[C@@H](c3ccc(OC)cc3)N3C(=O)CN(Cc4ccccc4)C(=O)[C@@]3(C)[C@H]2C1=O | 7 | 0 | 7 | 1 | -6 | -11 | i | 0
Cc1cc(C(=O)N2CCCC(N3CCN(c4ccc(F)cc4)CC3)C2)no1 (stereo not drawn) | -8 | -1 | -5 | -18 | 4 | 2 | i | -2
Nc1nnnn1/N=C/c1cc(Br)ccc1O | 17 | 2 | 5 | nt | nt | -19 | i | -18
O=C(COC(=O)CCN=C1NS(=O)(=O)c2ccccc21)NNC(=O)c1ccccc1 | nt | 6 | 4 | nt | nt | -12 | i | -18
CCCN1CCC(NC(=O)c2cccc(Oc3ccccc3)c2)CC1 | -2 | 6 | 2 | -11 | 1 | 6 | i | -14
CCNC(=S)Nc1ccc(Oc2ccccc2)cc1 | -20 | 1 | -2 | nt | nt | 7 | i | -37
COc1ccccc1N(C)S(=O)(=O)c1ccc(C)c(C(=O)N2CCCCCC2)c1 | nt | -1 | -3 | nt | nt | 53 | nt | 19
Cc1ccc2nc(-c3cccnc3)cc(C(=O)Nc3ccccc3[N+](=O)[O-])c2c1 | 9 | -3 | 2 | 3 | -1 | -26 | i | -16
COc1ccc(-c2nn(-c3ccccc3C)cc2CNCc2cccnc2)cc1F | -8 | 0 | 3 | 13 | 6 | -8 | i | 1
O=C(CCl)N1c2ccccc2CCc2ccccc21 | -6 | -3 | -1 | -2 | -3 | -61 | i | -15
CCc1ccc(NC(=O)CSc2nc3n[nH]c(C)c3c(=N)n2-c2cccc(OC)c2)cc1 | 6 | 2 | -12 | 12 | -4 | 59* | i | -9
O=C1C=CC(=O)N1c1ccc(N2CCCCC2)cc1 | -13 | 3 | 3 | -6 | -2 | -22 | i | 1
O=S(=O)(Nc1ccc(O)c(CN2CCCCC2)c1)c1ccccc1 | 5 | -3 | 3 | -8 | -7 | nt | i | 3
Cn1cc(S(=O)(=O)N2CCCC2)cc1C(=O)NCc1ccccc1Cl | 4 | -4 | -2 | -17 | 10 | -17 | i | -13
